Kir21 block: blocks the mouse Kir2.1 inward-rectifier potassium channel. 310,000 compounds, 0.85% hits. B-score at 10 µM. HEK293-Kir2.1, FluxOR thallium flux fluorescence; stronger effect = lower value. AID 1672. P35561;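 active means fluorescence ratio B-score at or below minus 3 SD of library scores, with starting-brightness B-score within 2 SD, cut at about -4.2 in these data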;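 further: channel flux triggered by added potassium and thallium sulfate stimulus; B-score of peak minus minimum fluorescence over baseline after thallium stimulus; more negative B-score means stronger Kir2.1 block with less thallium influx; some compounds called inactive have numbers as strong as hits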
Target sequence (P35561 whole entry, looked up): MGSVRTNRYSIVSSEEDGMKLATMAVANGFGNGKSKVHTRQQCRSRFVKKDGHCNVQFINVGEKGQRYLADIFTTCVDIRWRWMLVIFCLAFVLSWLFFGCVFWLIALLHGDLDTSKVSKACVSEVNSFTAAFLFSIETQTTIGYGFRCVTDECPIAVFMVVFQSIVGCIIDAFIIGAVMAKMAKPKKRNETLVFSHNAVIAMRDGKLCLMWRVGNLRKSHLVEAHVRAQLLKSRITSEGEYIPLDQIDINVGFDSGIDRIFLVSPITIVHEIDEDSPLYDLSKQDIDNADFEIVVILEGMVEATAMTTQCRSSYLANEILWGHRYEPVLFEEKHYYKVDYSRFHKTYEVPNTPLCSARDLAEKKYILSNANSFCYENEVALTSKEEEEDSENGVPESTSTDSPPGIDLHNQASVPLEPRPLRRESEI
An asterisk follows results filed as active.

Kir21 block	mol
0.7	O=S1(=O)CCC(SCc2nc3sccn3c2Br)C1 (stereo not drawn)
-0.16	Cc1nc2ccc(NC(=O)COc3cccc(F)c3)cc2s1
0.98	CCC(=O)Nc1ccc(/C(C)=N\NC(=O)c2ccc(OC)cc2)cc1
1.4	COc1ccc(N(C(=O)c2ccc3c(c2)OCO3)C2C=CS(=O)(=O)C2)c(OC)c1 (stereo not drawn)
-0.75	O=C(O)COc1ccccc1/C=N/NC(=O)c1cccc(S(=O)(=O)Nc2cccc(Cl)c2)c1
0.34	CC(Sc1nc2cc(Cl)ccc2s1)C(=O)Nc1cccc(S(=O)(=O)N2CCOCC2)c1 (stereo not drawn)
0.75	CCOCCCNC(=O)C1CCN(S(=O)(=O)CC)CC1
-0.44	COc1cccc(C(=O)Nc2ccc(N3CCN(Cc4ccccc4)CC3)cc2)c1
0.8	COc1ccc(-n2c(C)nc3c(cnn3-c3ccc(C)cc3)c2=O)cc1
0.98	CC(C)(C)C(=O)Nc1nc(C2CCCN2S(=O)(=O)c2ccc(Cl)cc2)cs1 (stereo not drawn)
1.8	COc1ccc(CNC(=O)c2ccc(CS(=O)(=O)c3ccc(C)cc3)o2)cc1
-0.77	CC1C(=O)Nc2ccc(S(=O)(=O)N3CCN(c4ccccc4F)CC3)cc2NC1=O (stereo not drawn)
0.01	CC(=O)c1ccc(NC(=O)COC(=O)c2ccccc2Sc2ccccc2C#N)cc1
-1.3	CC(=O)Nc1nc2c(C)cc(NC(=O)C3CCCCC3)cc2s1
-0.96	COC(c1ccccc1)(c1ccccc1)C(Oc1nccc(C)n1)C(=O)O (stereo not drawn)
0.05	O=C(NCc1ccccc1)N1CCC(c2nc3ccccc3[nH]2)CC1
-0.14	Cc1ccc(Cl)cc1N1CCN(Cc2nc3ccsc3c(=O)[nH]2)CC1
-0.24	CC1CC(C)CN(C(=O)COC(=O)c2cc(S(=O)(=O)N3CCOCC3)ccc2F)C1 (stereo not drawn)
-0.91	Cc1c(NC(=S)Nc2ccccc2C(F)(F)F)cccc1[N+](=O)[O-]
-0.79	O=C(c1ccc2c(c1)OCCO2)C1CCN(C(=O)c2ccc(F)cc2)CC1
0.56	CCC(C)(C)NC(=O)c1ccc2c(c1)OCCO2
0.98	Cc1c(NS(=O)(=O)c2cc(NC(=O)CCN3CCCC(C)C3)ccc2Cl)c(=O)n(-c2ccccc2)n1C (stereo not drawn)
-0.03	COc1ccc(NC(=O)CSc2nc(C)cs2)c(OC)c1
0.16	CC(=O)Nc1ccc(Nc2ncnc3c2cnn3-c2ccccc2)cc1
-1.1	O=C1c2ccccc2C(=O)N1CNc1ccccc1
-0.77	c1ccc(CN2CCC(=NNc3nc4ccccc4[nH]3)CC2)cc1
-1.2	Cc1ccc(CN(C(=O)c2cccs2)C2CCS(=O)(=O)C2)cc1 (stereo not drawn)
0.29	CC1CN(CCOc2ccccc2C(C)C)CC(C)O1 (stereo not drawn)
0.16	O=C(NCCN1CCOCC1)C(=O)NCc1ccco1
-0.17	Cc1ccc(CN2CCc3[nH]c(=O)[nH]c(=O)c3C2)cc1
0.46	CCOc1ccnc2c1c(=O)n(Cc1cc(OC)cc(OC)c1)c(=O)n2C
1.4	O=C(Nc1ccccc1F)c1ccccc1C(=O)Nc1ccccc1F
-1.2	COC(=O)CSc1nnc(COc2cccc3ccccc23)o1
-0.57	CCS(=O)(=O)c1cc([N+](=O)[O-])c(Sc2ccccc2NC(C)=O)s1
1.1	CN1C(=C2C(=O)OC(C)(C)OC2=O)Sc2ccccc21
-0.13	Cc1c(C(=O)N2CCCCC2)c(S(=O)(=O)NCCc2ccc(S(N)(=O)=O)cc2)c(C)n1C
0.95	CCOC(=O)c1cnc(SCC(=O)OCC(=O)N(CC)C2CCS(=O)(=O)C2)nc1N (stereo not drawn)
-0.68	O=C1N(c2ccc3c(c2)OCCO3)C(c2ccccc2)C1(F)F (stereo not drawn)
-0.64	C[C@@H]1CN(c2nc3nonc3nc2N2CCSCC2)C[C@H](C)O1
0.5	O=C(CSc1nnc(COc2ccccc2)o1)Nc1nccs1
-0.19	COc1cccc(CN2CCNC(=O)C2CC(=O)N(C)CCc2ccccn2)c1 (stereo not drawn)
-0.94	COc1ccc(NC(=O)Nc2cccs2)cc1OC
0.94	O=C(CCN1C(=O)[C@@H]2Cc3ccccc3CN2C1=O)N[C@H](Cc1ccccc1)C(=O)O
0.69	COCCn1c(CN2CCc3ccccc3C2)nc2c1c(=O)n(C)c(=O)n2C
1.1	Cn1nccc1C(=O)N(CCN1CCCCC1)CC1CCCN(C2CCCC2)C1 (stereo not drawn)
-0.43	CC(C)C(c1nnnn1C1CCCC1)N1CCCCC1 (stereo not drawn)
1	COC(=O)C(C)Sc1nc2c(c(-c3ccc(OC)cc3)c1C#N)-c1ccccc1C2=O (stereo not drawn)
0.54	COc1cccc(N/C(N)=N/c2nc(C)cc(=O)[nH]2)c1
-0.59	COCC(=O)NCc1ccc2c(c1)cc(C)n2C
-0.51	CSc1nsc(SCC(=O)Nc2ccc(C(C)=O)cc2)n1
0.49	Cc1ccc(C(=O)Nc2nnc(CC(=O)N/N=C/c3ccncc3)s2)cc1
-1.4	O=[N+]([O-])c1ccc(N(CCO)Cc2ccccc2)c([N+](=O)[O-])c1
-0.34	CCOC(=O)C1(Cc2ccccc2C(F)(F)F)CCN(C2CCC2)CC1
-0.49	COCCN1C(=O)N[C@@H](c2ccccc2)[C@H](C(C)=O)[C@H]1C
0.28	CS(=O)(=O)N1N=C(c2cccs2)CC1c1ccc(Cl)o1 (stereo not drawn)
1.7	CC1CC(C)CN(C(=O)CSC2=Nc3ccccc3C3=NC(Cc4c[nH]c5ccccc45)C(=O)N23)C1 (stereo not drawn)
0.81	O=C(CSc1nnc(-c2cnccn2)n1Cc1ccco1)c1ccc(Cl)cc1
-0.66	O=C(COc1ccccc1F)NCc1ccc(-n2cccc2)cc1
0.5	CCc1nnc(NC(=O)c2ccc(S(=O)(=O)N3CCCCC3C)cc2)s1 (stereo not drawn)
-4.2	CC(C)c1ccccc1OCC(=O)N1CCCCCCC1

Reprinted from above, 2 compounds:
Kir21 block	mol
-0.43	CC(C)C(c1nnnn1C1CCCC1)N1CCCCC1 (stereo not drawn)
1	COC(=O)C(C)Sc1nc2c(c(-c3ccc(OC)cc3)c1C#N)-c1ccccc1C2=O (stereo not drawn)

More structures
Kir21 block	mol
-0.02	CC1=C(C(=O)OCC(C)C)[C@]23C(=O)c4ccccc4[C@@]2(O1)OC(N)=C3C#N
-0.62	CN(C)S(=O)(=O)c1ccc(N2CCCC2)c(C(=O)OCC(=O)N2CCN(c3ccccc3)CC2)c1
0.58	CC(=O)Nc1ccc(-c2ccnc(-c3ccc(NC(C)=O)cc3)n2)cc1
-1.1	Cc1cccc(N2CCN(C(=O)c3cc(=O)[nH]c4ccccc34)CC2)c1C
0.67	N#Cc1c(N)c(C(=O)c2ccccc2)n2c1CCC2
0.67	CC(=O)NCCC(=O)Nc1cc(S(=O)(=O)Nc2ccc(Cl)cc2)ccc1N1CCCC1
0.21	CCOc1ccc(C2C(C(=O)c3ccco3)=C(O)C(=O)N2CCN2CCOCC2)cc1OCC (stereo not drawn)
-0.28	CN(C)c1nc(Oc2ccc(=O)n(C)n2)nc(N2CCOCC2)n1
-2.2	Cc1ccc(C(C)C)c(OCC(=O)NNC(=O)C(C(C)C)N2C(=O)c3ccccc3C2=O)c1 (stereo not drawn)
0.01	CC(C)(C)c1nnc2sc(SCC(=O)c3ccc4c(c3)OCCO4)nn2c1=O
0.44	Cc1cccc([C@@H]2[C@@H]3C(=O)N(Cc4ccccc4)C(=O)[C@@H]3[C@]3(Cc4ccc(Cl)cc4)C(=O)N(c4ccccc4)C(=O)N23)c1
0.72	NC(=O)C1CC(=O)N(c2ccc(OCc3ccc(F)cc3)cc2)C1 (stereo not drawn)
-1.7	O=C(CN1C(=O)C2CC=CCC2C1=O)NC1CCCCC1 (stereo not drawn)
0.14	c1ccc(N2CCN(c3cnc4ccccc4n3)CC2)cc1
-2.3	S=C(NCc1ccncc1)NC1CCCCC1

By substructure, the compounds so far containing a COOH group
Kir21 block	mol
-0.75	O=C(O)COc1ccccc1/C=N/NC(=O)c1cccc(S(=O)(=O)Nc2cccc(Cl)c2)c1
-0.96	COC(c1ccccc1)(c1ccccc1)C(Oc1nccc(C)n1)C(=O)O (stereo not drawn)
0.94	O=C(CCN1C(=O)[C@@H]2Cc3ccccc3CN2C1=O)N[C@H](Cc1ccccc1)C(=O)O

(listing goes on)
Kir21 block	mol
-0.31	CCOC(=O)c1cnn(-c2ncnc3sc(C)c(C)c23)c1N
0.18	CCC1CCCCN1CCCNC(=O)CSc1nc2nc(C)c(Cc3ccccc3Cl)c(C)n2n1 (stereo not drawn)
2	CC(=O)CCC(=O)c1ccc2ccccc2c1
1.6	CC1CCN(C(=O)c2cc(-c3ccco3)on2)CC1
-0.37	CCOc1ccccc1OCCCNCc1ccco1
-2.1	CCn1c2ccccc2c2nnc(SCC(=O)c3c(N)n(C)c(=O)n(C)c3=O)nc21
-1.6	Cc1ccc2nsnc2c1NS(=O)(=O)c1c(C)ccc2nsnc12
0.92	CCOc1ccc(-c2cc(N)n(S(=O)(=O)c3cccc4nsnc34)n2)cc1
-0.66	CCC(=O)N1CCc2cc(S(=O)(=O)NCCC(=O)NC3CCCc4ccccc43)ccc21 (stereo not drawn)
-0.43	CCc1cc2cc(C)ccc2nc1SCC(=O)N1CC(=O)Nc2ccccc21
-0.54	COC(=O)C(O)(NC(=O)OCc1ccccc1)C(F)(F)F (stereo not drawn)
-0.06	O=C(NCCc1ccccc1)C(=O)NC1CCCCC1
0.08	CC(C)c1nc(CNC(=O)c2cc(COc3c(F)cccc3F)on2)cs1
2.1	c1ccc(-c2ccc(-c3nc(-c4cccnc4)no3)cc2)cc1
0.05	CCCNC(=O)c1ccc(N(Cc2ccccc2)S(C)(=O)=O)cc1
-0.05	CCOc1ccc(CCNC(=O)c2ccc(C)c(N3CCCC3=O)c2)cc1OCC
0.89	CSCCC1NC2(C(=O)Nc3c(C)cc(Cl)cc32)[C@@H]2C(=O)N(C3CCCC3)C(=O)[C@H]12 (stereo partly drawn)
1.1	CCc1ccccc1NC(=O)CSc1nnc(-c2cc(C)[nH]n2)n1N
-0.96	CCOc1ccc(NC(=O)CCNC(=O)Cn2ccc3ccccc3c2=O)cc1
1.2	COc1cc(OC)cc(C(=O)NCCCN2CCOCC2)c1
0.1	Nc1nc(-c2ccc(Br)cc2)cs1
-0.58	CC(=O)N(c1cccc(Br)c1)c1nc(C)cc(C)c1C#N
2.3	NNC(=O)/C=C/c1ccc(Cl)cc1Cl
0.02	CC(NC(=O)CCNC(=O)c1ccco1)c1ccc(F)cc1 (stereo not drawn)
0.67	O=C(NCc1ccco1)c1cnn2c(C(F)(F)F)cc(-c3ccco3)nc12
-0.48	O=S(=O)(c1ccc2c(c1)oc1ccccc12)N1CCOCC1
0.24	Cc1ccc(S(=O)(=O)N(CC(=O)Nc2ccccc2C(=O)O)c2ccc(Cl)cc2)cc1
2	COc1ccc(N2CCN(Cc3nc(N)nc(N4CCCc5ccccc54)n3)CC2)cc1
0.96	O=C(NC1CCCCC1)c1ccc(CNc2c(N3CCOCC3)c(=O)c2=O)cc1
-1.3	O=C(Nc1cc(Cl)ccc1Oc1ccccc1)c1ccc(F)cc1
-0.31	COc1ccc(CCNC(=O)c2cnc3n(c2=O)CCS3)cc1OC
1.9	COc1ccc(-n2ncc(C(C)NS(=O)(=O)c3ccc(C(C)=O)cc3)c2C)cc1 (stereo not drawn)
-2.5	Cc1ccc(S(=O)(=O)N(C)c2ccc(OCC(=O)NCc3ccco3)cc2)cc1
-2.9	O=C(NC1CCCCC1)C(c1cccnc1)N(C(=O)CCl)c1cccc(Cl)c1 (stereo not drawn)
-0.55	O=C(Nc1cccc(C(=O)O)c1)/C(=C\c1ccccc1)NC(=O)c1ccccc1Cl
0.57	CCC(=O)c1ccc(OCC(=O)OCC(=O)c2cc(C)n(CC3CCCO3)c2C)cc1 (stereo not drawn)
0	Cn1cnnc1SCc1ccccc1Br
-0.66	Cc1ccc(N2CCN(C(=O)CCc3nc4ccccc4[nH]3)CC2)c(C)c1
0.24	COCCn1c(SCC(=O)N2CCCC(C)C2)nnc1-c1ccco1 (stereo not drawn)
-1	Cc1cc(Cl)ccc1OCC(=O)N1CCCN(C(=O)COc2ccc(Cl)cc2C)CC1
-1.8	COc1ccc(C(CCN2CCN(c3ccccc3)CC2)c2c(O)cc(OC)cc2OC)cc1 (stereo not drawn)
-1	CCCNC(=O)c1cn(CC)c2cc(N3CCN(C(=O)c4ccco4)CC3)c(F)cc2c1=O
-1.3	O=C(NCCN1CCOCC1)C(=O)NCC1OCCN1S(=O)(=O)c1ccc(F)cc1 (stereo not drawn)
0.31	O=C(Nc1ccc(Cl)c(Cl)c1)N(CCCN1CCOCC1)Cc1cccs1
1.2	O=C(NCc1ccc(F)cc1)N1CCc2ccccc2C1
0.02	N#CCSc1ncnc2sc3c(c12)CCC3
-0.55	Cc1cccn2cc(CNS(=O)(=O)c3cccc(F)c3)nc12
0.06	COc1ccc(N2CCN(C(=O)c3ccc(NS(=O)(=O)c4ccc(F)cc4)cc3)CC2)cc1
0.16	COc1cccc(-c2c(NC(C)=O)n(C)c3ccccc3c2=O)c1
0.04	CCCCNC(=S)N1CCN(c2ccc(C(C)=O)cc2)CC1
0.66	COc1ccccc1NC(=O)c1ccc(Br)o1

Ordered by number of heavy atoms (descending): some entries from above
Kir21 block	mol
0.06	COc1ccc(N2CCN(C(=O)c3ccc(NS(=O)(=O)c4ccc(F)cc4)cc3)CC2)cc1
-1.3	O=C(NCCN1CCOCC1)C(=O)NCC1OCCN1S(=O)(=O)c1ccc(F)cc1 (stereo not drawn)
0.31	O=C(Nc1ccc(Cl)c(Cl)c1)N(CCCN1CCOCC1)Cc1cccs1
0.04	CCCCNC(=S)N1CCN(c2ccc(C(C)=O)cc2)CC1
1.2	O=C(NCc1ccc(F)cc1)N1CCc2ccccc2C1
0.66	COc1ccccc1NC(=O)c1ccc(Br)o1
0.02	N#CCSc1ncnc2sc3c(c12)CCC3

Screening results as filed in PubChem BioAssay.

Only part of the results is shown, and most or all hits are left out here.
